# Menin MLL FP FL – displaces fluorescein MLL peptide from human menin. Fluorescence polarization, fluorescein-MLL peptide displacement from menin. FP activity change, % at 61.4 µM. 290,000 tested, under 10 active; inconclusive = falling polarisation curve, or a change in total fluorescence; inactive = total fluorescence flat and polarisation flat or rising; no compound was filed as active; the % refers to the polarisation; negative = inhibition;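 further: % of control where 0% means no effect; inhibitors lower the polarisation; unlabelled MLL peptide was the positive control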
# gsp agonist – gsp mutant agonism; hit rate 0.13% among 340,000; AID 624287; gsp mutant cells, cAMP HTRF, 30 min; control for the full effect not named in the record; Potency, µM (titrated, usually from 76.9 µM), without a hit: at the top dose activation (cAMP increase), usual class: activators; active = well fitted activation curve with a large enough effect; inconclusive = small, poorly fitted or top-dose-only effect, or another doubt; inactive = no such curve, though single readings can be large or run the other way; cell line not stated here;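 further: phosphodiesterase inhibitor Ro 20-1724 added with compounds to block cAMP breakdown; potency means the concentration at half of the fitted maximal effect; nearly all actives have a fitted effect of over 60% in size; about a fifth of the inactives were tested at one dose only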
#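 Cells stably selected in G418 were plated at 2000/well, grown 16-24 hr, then given compounds in DMSO with the PDE inhibitor […] (300 uM solution added) for 30 min at 37C; cAMP was read by HTRF.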
# ClpP mod – qHTS Assay for Activators of ClpP | hit rate 1.9% among 340,000 | Potency, µM (highest dose often 57.5 µM), without a hit: at the top dose activity change, negative = active | ATP-dependent Clp protease proteolytic subunit (Bacillus subtilis (strain 168)), P80244 | purified B. subtilis ClpP, FRET peptide cleavage, 20 min; active = well fitted falling curve with a large enough effect; inconclusive = small, poorly fitted or top-dose-only effect; inactive = no such curve, though single readings can be large or run the other way; further: potency means the concentration at half of the fitted maximal effect; the source files actives as falling curves though it sought activators and does not explain the sign; nearly all actives have a fitted effect of over 65% in size; many hits overshoot -100%
# Target sequence (P80244 whole entry, looked up): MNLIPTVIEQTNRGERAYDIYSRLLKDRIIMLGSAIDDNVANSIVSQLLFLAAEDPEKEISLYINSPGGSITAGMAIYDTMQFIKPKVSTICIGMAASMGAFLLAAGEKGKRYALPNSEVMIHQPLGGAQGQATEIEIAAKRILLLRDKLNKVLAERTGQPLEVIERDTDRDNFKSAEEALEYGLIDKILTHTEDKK
#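 Purified B. subtilis ClpP, 10 microg/mL final in Tris/HCl pH8 with KCl, BSA, glycerol and Tween-20, cleaved an Abz/nitrotyrosine-quenched decapeptide. Fluorescence (ex 320, em 430) was read at 0 and 20 min at room temperature. Delta was normalized to 5.8 microM ADEP and DMSO/no-enzyme controls.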
# gsp antag – gsp mutant antagonism; gsp-mutant cells, cAMP HTRF, 30 min; control for the full effect not named in the record; hit rate 0.4% among 340,000; AID 624288; Potency, µM (titrated, usually from 76.9 µM), without a hit: at the highest dose activity change, negative = inhibition, hits mostly inhibitors; active = falling curve of any shape with a large fitted effect; inconclusive = falling curve, mostly with a smaller effect; inactive = flat or rising curve; cell line not stated here;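 further: intracellular cAMP measured with PDE inhibitor Ro 20-1724 present during compound exposure; potency means the concentration at half of the fitted maximal effect; on the % scale 0 is the no-effect control and ±100 the full control effect; nearly all actives have a fitted effect of over 65% in size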
#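 Measurement of cellular cAMP by homogeneous time-resolved fluorescence following a 30 min compound exposure at 37C. The PDE inhibitor […] was present throughout; the assay buffer was DPBS with 0.05% BSA and 0.005% Tween 20.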
# TRPV1 PAM – human TRPV1 potentiation | Q8NER1 | TRPV1-expressing cells, Fluo-8 calcium influx, capsaicin EC20 potentiation; host cell line not named in the record; control for the full effect not named in the record | potentiation, % at 8.33 µM | hit rate 0.02% among 320,000; active means potentiation above 80%; inconclusive means 30% to 80%; inactive means below 30%; further: 0% is about no effect
#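 Cells expressing TRPV1 were dye-loaded with Fluo-8 and read kinetically: 10 s baseline, 3 min after compound (agonist portion), then 2 min after EC20 capsaicin (allosteric enhancer portion). Calcium-bound dye fluorescence at 480/520 nm.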
# Sfp PPTase inh – Sfp phosphopantetheinyl transferase inhibition; Biochemical Sfp PPTase activity, qHTS; hit rate 3.5% among 310,000; Potency, µM, for inactives: max response, negative = inhibition, actives largely listed as inhibitors; Q9F4F7; AID 1490; active means well fitted inhibition curve with a large enough effect; inconclusive means small, poorly fitted or top-dose-only effect, or another doubt; inactive means no such curve, though single readings can be large or run the other way;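 further: the enzyme is Sfp with the accession as filed and its product quenches rhodamine fluorescence; potency means the concentration at half of the fitted maximal effect; 0% = enzyme reaction without inhibitor and -100% = no enzyme wells; top concentration of the series not given in the record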
#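 Sfp 15 nM + cpd, 15 min RT; start w/ rhodamine-CoA 5 uM, BHQ-2-YbbR 12.5 uM (final); 50 mM Hepes pH 7.6, 10 mM MgCl2, 0.01% NP-40, 0.01% BSA; read 525/598 nm at 0 and 30 min.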
# TRPML1 inh – blocks the human TRPML1 channel; Q9GZU1; TRPML1-inducible cells, Ca2+ dye fluorescence, FDSS; active compounds read low; inhibition of EC80 agonist-evoked calcium signal; AID 624415; activity change, negative = inhibition, % (test concentration not listed); hit rate 0.02% among 390,000; in the data active means activity change below about -50%; inconclusive means about -30% to -50%; inactive means above about -30%;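 further: stimulus is agonist 54-4 at its EC80 concentration; on the % scale 0 is the no-effect control and ±100 the full control effect; compound concentration not given in the record; the text of the record puts the active cut at -80%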
# Target sequence (Q9GZU1 whole entry, looked up): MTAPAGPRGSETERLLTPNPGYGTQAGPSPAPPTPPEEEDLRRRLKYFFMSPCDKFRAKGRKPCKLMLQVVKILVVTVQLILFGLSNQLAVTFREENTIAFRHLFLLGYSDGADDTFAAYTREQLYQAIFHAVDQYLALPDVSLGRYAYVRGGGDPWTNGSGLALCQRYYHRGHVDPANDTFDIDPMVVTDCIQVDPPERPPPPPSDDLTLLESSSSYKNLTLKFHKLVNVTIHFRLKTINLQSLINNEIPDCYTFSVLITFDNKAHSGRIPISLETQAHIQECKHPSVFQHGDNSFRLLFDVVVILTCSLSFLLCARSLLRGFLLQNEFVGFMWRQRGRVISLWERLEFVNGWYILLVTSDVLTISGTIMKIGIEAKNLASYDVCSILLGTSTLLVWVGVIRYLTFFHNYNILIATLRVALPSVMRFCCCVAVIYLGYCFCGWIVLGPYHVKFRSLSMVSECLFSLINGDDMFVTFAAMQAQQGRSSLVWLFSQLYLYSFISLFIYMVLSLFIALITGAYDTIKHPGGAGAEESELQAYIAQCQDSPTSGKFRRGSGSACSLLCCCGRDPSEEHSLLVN
#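 Tet-induced TRPML1-DL cells loaded with Ca8 no-wash calcium dye were read kinetically on FDSS. Compound addition was followed by EC80 agonist 54-4 (4 uM final); inhibition was read over 110 s.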
# * = called active by the depositor; u = inconclusive; x = not tested or not shown; & = joins results of further samples; ! = repeats disagree; [ ] = another dose, or the depositor's remark.
# Every second line gives: Menin MLL FP FL	gsp antag	ClpP mod	gsp agonist	TRPV1 PAM	Sfp PPTase inh	TRPML1 inh
Cc1cc2nccc(-c3ccccn3)n2n1
    -5.7	5%	1.3%	12%[15.4 µM]	18	20%	2
Cc1cc(C)n(-c2ccc(C(=O)Nc3ccc(N4CCOCC4)cc3)cc2)n1
    0.9	1%	u	-10%	0	14%	4
O=C1c2ccsc2SCCN1Cc1c(F)cccc1Cl
    5.0	-3%	-3.1%	0%	0	10%	-15
CCCCn1nc(C(=O)Nc2cc(S(=O)(=O)N(C)C)ccc2C)c2ccccc2c1=O
    4.3	-11%	-4.8%	25%	u	1%	-11
O=C1CSC(c2cccc(F)c2)N1c1ccc(O)cc1 (stereo not given)
    -1.8	3%	0.5%	-34%[inhibitor]	-1	13%	38
Cc1cc(C)nc(SCC(=O)NC(=O)c2ccccc2O)n1
    x	1%	1.0%	0%[15.4 µM]	x	x	13
CCN1CCc2c(C#N)c(N3CCCCC3)nc(NCc3ccccc3)c2C1
    1.4	11%	u	-1%	-7	-8%	-3
c1ccc2oc(-c3nn4c(Cn5cnc6ccccc65)nnc4s3)cc2c1
    x	-7%	-14%	12%	x	x	-7
CC(=O)Nc1ccc(NC(=O)CCc2nc3ccccc3c(=O)[nH]2)cc1
    -4.2	7%	x	-36%[inhibitor]	0	14%	-3
O=C(COC(=O)c1cc(Br)ccc1O)Nc1ccc2c(c1)OCO2
    x	-12%	-2.3%	5%	-12	x	6
CCCC(NS(=O)(=O)c1ccc(OC)cc1)C(=O)O (stereo not given)
    -0.4	8%	-1.0%	0%	-3	9%	-7
CC(C)COc1cc(=O)[nH]c(SCC(C)C)n1
    0.1	4%	2.2%	-22%	-7	7%	9
Cc1ccc(NC(=O)Nc2ccc3c(c2)CCC3)c(C)c1
    x	12%	1.0%	u	-1	21%	24
Cc1ccc(C(=O)Oc2coc(CSc3nnc(NC(=O)c4cccs4)s3)cc2=O)cc1C
    5.9	4%	0.7%	-3%	4	-5%	18
O=C(O)c1ccc2c(=O)n3cc(C(=O)c4ccccc4O)cc(Cl)c3nc2c1
    8.5	u	0.3%	-2%	-3	14%	-4
C=CCOc1ccc(/C=C2\SC(=Nc3cccnc3)NC2=O)cc1
    u	-18%	x	6%[15.4 µM]	4	11%	0
O=C(Nc1ccc2nn(-c3ccccc3)nc2c1)c1ccc2c(c1)OCO2
    1.4	8%	17%	-40%	-7	2%	-11
COc1ccc(OC)c(/C=N/N=C(\N)c2nonc2N)c1
    0.5	-8%	2.5%	19%	9	12%	9
O=C(CCC(=O)N(CC(=O)NC1CCCCC1)CC1CCCO1)Nc1nccs1 (stereo not given)
    0.3	-2%	x	-6%[15.4 µM]	2	19%	-8
CCN(CC(=O)Nc1ccc2c(c1)OCCO2)C(=O)/C=C/c1cccc(Br)c1
    x	-1%	-7.8%	-13%	-13	x	-2

# Rewritten bar-delimited: entries from further up
SMILES | Menin MLL FP FL | gsp antag | ClpP mod | gsp agonist | TRPV1 PAM | Sfp PPTase inh | TRPML1 inh
O=C(Nc1ccc2nn(-c3ccccc3)nc2c1)c1ccc2c(c1)OCO2 | 1.4 | 8% | 17% | -40% | -7 | 2% | -11
Cc1cc(C)nc(SCC(=O)NC(=O)c2ccccc2O)n1 | x | 1% | 1.0% | 0%[15.4 µM] | x | x | 13
CC(C)COc1cc(=O)[nH]c(SCC(C)C)n1 | 0.1 | 4% | 2.2% | -22% | -7 | 7% | 9
C=CCOc1ccc(/C=C2\SC(=Nc3cccnc3)NC2=O)cc1 | u | -18% | x | 6%[15.4 µM] | 4 | 11% | 0
Cc1ccc(C(=O)Oc2coc(CSc3nnc(NC(=O)c4cccs4)s3)cc2=O)cc1C | 5.9 | 4% | 0.7% | -3% | 4 | -5% | 18

# Remaining list, next part
# Every second line gives: Menin MLL FP FL	gsp antag	ClpP mod	gsp agonist	TRPV1 PAM	Sfp PPTase inh	TRPML1 inh
COc1ccc(C2N(C(=O)N(C)C)CCN2S(=O)(=O)c2ccc(OC)cc2)cc1 (stereo not given)
    2.9	-17%	x	2%[15.4 µM]	5	24%	22
CCCN(C(=O)Cn1nc(C)c([N+](=O)[O-])c1C)c1c(N)n(Cc2ccccc2)c(=O)[nH]c1=O
    x	11%	1.4%	-4%[15.4 µM]	4	x	5
Cc1ccc(-c2ccc(C3C(C#N)=C(N)Oc4n[nH]c(C)c43)o2)cc1 (stereo not given)
    u	u	-0.7%	18%	-3	50µM*	-14
O=C(NC(=S)Nc1ccc2c(c1)OCCO2)c1ccccc1F
    -0.7	-16%	-1.4%	1%	-3	-11%	11
Cc1cc(C(=O)OCC(=O)NC2CCC(C)CC2)c(C)o1 (stereo not given)
    x	-17%	1.3%	-18%	-9	x	-10
Cc1ccc(C(=O)CSc2nnc(COc3cccc(C)c3)o2)cc1
    -2.4	u	0.1%	-13%	-8	-7%	6
COc1ccc2[nH]c(=O)c(-c3noc(-c4ccccc4)n3)cc2c1
    4.2	-9%	-12%	-4%	12	u	-8
CC1CCCC(NC(=O)CCNC(=O)c2ccccc2Cl)C1C (stereo not given)
    x	10%	1.2%	-21%	6	x	11
Cc1cc(NC(=O)/C=C/c2ccccc2Cl)n(-c2nc3ccccc3[nH]2)n1
    5.7	-7%	0.8%	5%[15.4 µM]	5	-27%	74
CC1=CS(=O)(=O)CC1SC(=S)N(C)C1CCS(=O)(=O)C1 (stereo not given)
    0.8	-1%	x	u	4	8%	-4
COC(=O)c1ccccc1NC(=O)COC(=O)c1ccc(C)c(NC(=O)c2ccco2)c1
    3.2	u	-9.4%	-11%	12	8%	14
O=C(c1cc(Cl)cc(Cl)c1)N1CCC(=O)N(C(COCc2ccccc2)Cc2ccccc2)CC1 (stereo not given)
    6.4	-18%	0.6%	-28%	-5	3%	4
O=C(Nc1nncs1)c1cccnc1Cl
    0.1	4%	-1.5%	13%	2	8%	-19
COc1cc2nc(Nc3cccc(F)c3)nc(N)c2cc1OC
    -6.8	-7%	32µM*!	8%[15.4 µM]	12	u	-2&-4
CCNc1cc(=O)n(C)c(=O)n1C
    1.1	-10%	-1.2%	-6%	-4	21%	30
CNc1nc(-c2ccc3c(c2)CCN3S(=O)(=O)c2ccccc2)c(C)s1
    2.4	-7%	x	-16%[15.4 µM]	5	-20%	-1
N#Cc1nc(Cc2ccccc2)oc1N1CCC(C(N)=O)CC1
    4.5	6%	13µM*	18%	-13	17%	9
CC(=O)c1c(C)[nH]c(C(=O)OCC(=O)NCCCc2ccccc2)c1C
    x	-13%	-1.3%	-25%	-11	x	-19
CSCCC(N=C1NS(=O)(=O)c2ccccc21)C(=O)NCc1ccccc1F (stereo not given)
    x	-2%	-2.5%	-7%	-2	10%	11
CC1(C)CC2CC(C)(CN2C(=O)COC(=O)Cn2[nH]c(=O)c3ccccc3c2=O)C1 (stereo not given)
    0.4	-8%	-4.5%	3%	1	4%	u
COc1ccccc1C(=O)NC(CCSC)C(=O)NCCCn1nc(C)cc1C (stereo not given)
    x	11%	-2.0%	-23%	1	x	10
Cc1cccn2c(=O)c3cc(C(=O)NCCN4CCOCC4)c(=N)n(CCc4ccccc4)c3nc12
    5.0	-2%	3.2µM*	u	-13	-5%	13
CC(=O)N1CCc2cc(S(=O)(=O)NCCC(=O)Nc3cccc(C)c3)ccc21
    -0.5	-5%	-3.3%	4%	7	1%	13
COc1ccccc1NC(=O)CN(Cc1ccccc1)S(C)(=O)=O
    6.0	0%	-2.9%	-5%	u	24%	23
COC(=O)c1nc2cc(C)ccn2c1F
    1.4	4%	3.6%	11%	2	16%	-11
CN(CC(=O)Nc1c(Cl)cccc1Cl)C(=O)c1cccc(S(=O)(=O)NCc2ccccc2)c1
    x	3%	1.9%	11%[15.4 µM]	-3	x	6
Cc1cc(C)n2c(SCC(=O)Nc3cc(S(=O)(=O)N(C)C)ccc3C)nnc2n1
    x	10%	-0.7%	15%[15.4 µM]	x	x	8
O=C(CSc1nnc(-c2ccccn2)o1)Nc1ccccc1
    -2.8	3%	x	-15%[15.4 µM]	5	1%	-1

# Compounds listed so far containing a furan ring, fused or not (4):
# Every second line gives: Menin MLL FP FL	gsp antag	ClpP mod	gsp agonist	TRPV1 PAM	Sfp PPTase inh	TRPML1 inh
c1ccc2oc(-c3nn4c(Cn5cnc6ccccc65)nnc4s3)cc2c1
    x	-7%	-14%	12%	x	x	-7
Cc1ccc(-c2ccc(C3C(C#N)=C(N)Oc4n[nH]c(C)c43)o2)cc1 (stereo not given)
    u	u	-0.7%	18%	-3	50µM*	-14
Cc1cc(C(=O)OCC(=O)NC2CCC(C)CC2)c(C)o1 (stereo not given)
    x	-17%	1.3%	-18%	-9	x	-10
COC(=O)c1ccccc1NC(=O)COC(=O)c1ccc(C)c(NC(=O)c2ccco2)c1
    3.2	u	-9.4%	-11%	12	8%	14
